RanGTP-Imp inh: inhibitors of RanGTP-importin-beta interaction, primary screen, biochemical, FRET, CFP-Ran, YFP-importin-beta, homogeneous. 1.1% of 300,000 active. AID 2216. cell-free CFP-Ran/YFP-importin-beta FRET ratio. inhibition, % (concentration not given with the values);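 active means most replicates above 15%; inconclusive means exactly half above 15%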;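 further: 0% = DMSO wells and 100% = Ran loaded with GDP instead of GTP; wells of about 40 µL received 100 nL stock; the first replicate is given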
Beta2AR agonist: agonists of human beta-2 adrenergic receptor inducing internalization | P07550 | Am2.2-beta2AR cells, FAP receptor internalization, flow cytometry; reference of the scale not given here | response, % (test concentration not listed) | 0.43% of 340,000 active | AID 504454;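 active means response above a set limit, near 3 SD of response in nonfluorescent compounds, cut at about 42% in these data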;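 further: stock transfer was 100 nL into about 11 µL; a reference agonist was the positive control; negative values mostly stem from fluorescent compounds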
Target sequence (P07550 whole entry, looked up): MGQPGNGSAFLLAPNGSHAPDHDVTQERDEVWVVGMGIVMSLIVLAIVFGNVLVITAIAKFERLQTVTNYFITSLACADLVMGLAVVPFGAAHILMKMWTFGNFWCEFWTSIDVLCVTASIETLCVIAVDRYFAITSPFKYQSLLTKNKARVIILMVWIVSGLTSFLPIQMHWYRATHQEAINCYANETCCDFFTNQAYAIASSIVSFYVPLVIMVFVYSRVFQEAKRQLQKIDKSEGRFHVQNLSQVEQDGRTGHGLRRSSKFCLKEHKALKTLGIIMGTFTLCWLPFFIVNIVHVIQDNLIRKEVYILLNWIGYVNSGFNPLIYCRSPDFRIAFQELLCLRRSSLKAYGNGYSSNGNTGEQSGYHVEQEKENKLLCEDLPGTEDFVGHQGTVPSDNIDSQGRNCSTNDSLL
HNF4A DNA FP: change in binding of human HNF4 alpha to DNA. AID 1224865. 0.3% of 360,000 active. HNF4a-FITC DNA binding, fluorescence polarization, 1 h. activity change, % at 10 µM. P41235; in the data active means activity change above about 30%, passing the limit was not always enough;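 further: controls were the assay level and a saturating level of protein; the project sought stronger binding though the title names inhibitors; some compounds called inactive have numbers as strong as hits; positive values seem to mean higher polarization but the record does not say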
Target sequence (P41235 whole entry, looked up): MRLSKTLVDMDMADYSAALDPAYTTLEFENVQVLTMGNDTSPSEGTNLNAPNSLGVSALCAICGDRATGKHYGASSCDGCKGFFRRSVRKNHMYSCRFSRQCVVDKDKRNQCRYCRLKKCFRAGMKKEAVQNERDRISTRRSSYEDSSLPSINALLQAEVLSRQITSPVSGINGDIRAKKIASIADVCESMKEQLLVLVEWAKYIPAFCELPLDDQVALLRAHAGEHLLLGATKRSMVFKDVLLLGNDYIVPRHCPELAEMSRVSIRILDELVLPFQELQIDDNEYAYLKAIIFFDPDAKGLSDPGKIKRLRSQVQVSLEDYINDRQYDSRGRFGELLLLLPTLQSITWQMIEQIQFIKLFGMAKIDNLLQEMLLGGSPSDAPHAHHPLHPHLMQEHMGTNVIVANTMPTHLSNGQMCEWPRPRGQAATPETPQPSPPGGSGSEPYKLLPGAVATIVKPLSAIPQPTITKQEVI
LANA-H2B inh: blocks KSHV LANA binding to histone H2A/H2B | Q9QR71 | inhibition, % (concentration not given with the values) | cell-free LANA-H2A/H2B peptide, fluorescence polarization | AID 2629 | 0.6% of 320,000 active; in the data active means inhibition mostly above about 10%, no sharp cut-off; inactive means mostly below about 6.7%;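 further: stock transfer was 7.5 nL into about 10 µL; 0% = median of vehicle wells and 100% = median of positive control wells; one replicate is shown; the record names a cut of 25% in any replicate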
Vif A3G: inhibitors of Vif binding to APOBEC3G peptide, primary screen, biochemical, TR-FRET, GST-Vif 1-94, biotin-A3G peptide, dose response retest (AID 1117319); TR-FRET GST-Vif / biotin-A3G peptide binding; higher % means a stronger effect; test concentration not given here; strong numbers were not always called active; inhibition, %, or IC50 in µM where a hit was titrated; 0.57% of 260,000 active;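 active means above the screen mean plus three standard deviations and confirmed in dose response; inconclusive means results disagree or hit not tested in dose response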;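 further: Vif residues 1-94 fused to GST binding biotinylated APOBEC3G peptide 110-148; 0% = full assay without inhibitor and 100% = GST in place of GST-Vif; retest series ran down from 100 µM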
ALR H2O2 inh: inhibitors of human sulfhydryl oxidase ALR; P55789; purified ALR, DTT oxidation, H2O2 HRP-luminol luminescence; inhibition, % (no concentration beside the values); 3.8% of 290,000 active; AID 485317;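 active means mean and each replicate at 75% or more; inconclusive means only one of the two met; inactive means neither met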;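 further: stock transfer was 7.5 nL into about 7.5 µL; 0% = neutral wells and 100% = wells with inactivated enzyme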
Target sequence (P55789 whole entry, looked up): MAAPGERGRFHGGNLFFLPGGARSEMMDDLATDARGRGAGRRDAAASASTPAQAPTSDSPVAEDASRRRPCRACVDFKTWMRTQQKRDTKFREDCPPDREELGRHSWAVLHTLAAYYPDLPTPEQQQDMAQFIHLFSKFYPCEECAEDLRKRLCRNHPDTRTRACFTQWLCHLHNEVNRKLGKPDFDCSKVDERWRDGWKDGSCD
Calb FLC: affects C. albicans growth with fluconazole | C. albicans CaCi-2 (fluconazole-resistant clinical isolate) + fluconazole, Alamar Blue growth, 48 h | growth inhibition, % (test concentration not listed) | 0.57% of 300,000 active;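 active means most replicates above 75%; inconclusive means exactly half above 75%; inactive means most below 75%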;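 further: all wells also contain fluconazole at 8 µg/ml as a sub-toxic cotreatment; 0% = median of DMSO wells and 100% = median of geldanamycin control wells; wells of about 8 µL received 7.5 nL stock; the first replicate is given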
* hit, by the source's call; ? = inconclusive; . = no result given.

Sample of the layout (2 entries):
smiles	ALR H2O2 inh	HNF4A DNA FP	LANA-H2B inh	Calb FLC	Beta2AR agonist	RanGTP-Imp inh	Vif A3G
C=CCn1c(C)nc2c(cnn2-c2ccccc2)c1=O	2.8	0.0	-1.4	-8.5	-2.5	-2.8	-0.7%
C=CCNC(=O)CN1CCC(O)(c2ccc(F)cc2)CC1	-4.9	2.1	0.7	3.1	3.4	9.2	16.4%

Results (from the top)
smiles	ALR H2O2 inh	HNF4A DNA FP	LANA-H2B inh	Calb FLC	Beta2AR agonist	RanGTP-Imp inh	Vif A3G
C=CCn1c(C)nc2c(cnn2-c2ccccc2)c1=O	2.8	0.0	-1.4	-8.5	-2.5	-2.8	-0.7%
C=CCNC(=O)CN1CCC(O)(c2ccc(F)cc2)CC1	-4.9	2.1	0.7	3.1	3.4	9.2	16.4%
COCCN(C(=O)COC(=O)CSc1ccccc1)c1c(N)n(Cc2ccccc2)c(=O)[nH]c1=O	.	-8.5	0.6	1.9	-3.8	1.7	2.9%
O=C(CSc1nc(-c2ccccc2)nn1C(=O)c1ccccc1)Nc1cccc([N+](=O)[O-])c1	-3.4	0.3	0.4	7.3	6.2	3.8	0.4%
CN(C)NC(=S)Nc1ccc2nc(-c3ccccn3)c(-c3ccccn3)nc2c1	.	-3.5	2.1	-1.0	2.2	48.4*	3.0%
COc1ccc(Nc2ccc(Cl)nn2)cc1	7.8	1.2	-5.0	-16.7	-4.4	?	-3.6%
CC1=C(C(=O)Nc2ccc(C(=O)NCCC(C)C)cc2)SCCO1	-4.1	-1.4	0.1	-14.1	3.3	?	-2.3%
Clc1cc(NCc2cccs2)ccc1N1CCOCC1	97.2*	2.6	-2.0	0.1	-5.1	2.3	30.5%
COc1ccc(N(CC(=O)Nc2ccc(S(=O)(=O)N3CCCCC3)cc2)S(C)(=O)=O)cc1OC	-2.4	3.0	0.6	17.9	-6.9	0.7	1.1%
COc1ccccc1NC(=O)CCc1nnc2ccc(N3CCCCC3)nn12	-1.4	1.5	4.3	7.3	-9.7	-1.6	-8.2%
CC(C)(C)c1nnc(NS(C)(=O)=O)s1	-7.5	-5.1	2.1	-0.8	-1.6	11.6	.
Cc1cc(C)n(-c2cc(N3CCN(S(=O)(=O)c4ccc(C)c(C)c4)CC3)ccc2[N+](=O)[O-])n1	2.9	-3.7	-0.3	-4.1	-2.3	-1.0	-0.3%
Cn1cccc1/C=N/n1c(-c2ccccc2)n[nH]c1=S	46.8	-3.9	-5.1	-4.8	-1.4	-3.3	6.8%
N#CCCn1cc(C(=O)O)c(-c2cccs2)n1	-1.9	2.4	4.8	-12.3	4.9	-1.2	13.6%
CC(=O)c1cc(C#N)c(Oc2cccc(C(F)(F)F)c2)nc1C	2.3	1.8	-4.6	0.8	-13.8	2.0	-5.3%
COC(=O)[C@@]12CCCN1[C@H](c1ccc(-c3ccc4c(c3)OCO4)c(OC)c1)[C@H]1C(=O)N(C)C(=O)[C@H]12	-13.6	-1.5	5.6	5.1	4.2	-1.5	.
CC(SCc1ccccc1)C(=O)Nc1ccc(F)cc1 (stereo not given)	19.7	-0.2	3.5	1.9	9.9	-0.8	.
O=c1c(-c2ccccc2)cnc2n1CCS2	-0.6	-5.1	1.2	-6.7	-5.5	-0.9	-3.0%
CCCCNC(=O)/C(C#N)=C/c1ccc(C(=O)OC)cc1	15.6	7.1	-3.3	25.0	5.7	6.5	-2.2%
COC(=O)[C@H]1C[C@@H]1[C@H](NC(=O)c1cc(C)on1)c1ccccc1	3.2	-0.2	5.0	1.0	-0.9	-1.0	-4.2%
CC(C(=O)N1CCOCC1)(c1ccccc1)c1ccccc1	-4.2	-5.5	-10.7	2.5	-0.1	-0.3	>100µM*
CC(C)CCNC(=O)c1ccc(-c2ccccc2)cc1	-11.4	.	4.0	1.3	.	-1.4	-8.0%
COc1ccc(-n2nnc3c(=O)n(CC(=O)NCC4CCCO4)cnc32)cc1 (stereo not given)	-0.5	-3.3	-1.5	11.8	-7.4	1.6	2.6%
Cc1cc(OCC(=O)N2CCCC2)cc(C)c1Cl	-4.0	1.6	2.3	-1.1	1.9	-2.9	?
Oc1[nH]c2ccccc2c1C=Nc1ccccc1	.	0.0	2.2	2.7	0.2	1.5	-10.1%
CCCCOc1ccc(Cl)cc1CSc1n[nH]c(C)n1	-0.8	1.2	1.1	-5.1	-9.6	-0.9	1.7%
C/C(CC(=O)Nc1ccccn1)=N\NC(=O)c1ccc([N+](=O)[O-])cc1Cl	37.2	-2.9	-0.6	-1.3	-4.9	1.1	3.4%
COc1ccc(S(=O)(=O)NCc2ccco2)c2ccccc12	-20.7	-3.4	-14.1	4.3	4.2	-1.5	6.4%
Cc1ccc(CNC(=O)COC(=O)c2cncc(Br)c2)cc1	1.2	5.6	5.0	-2.8	1.1	-2.4	-105.1%
COc1cc(C2/C(=C(/O)c3ccc(OCC(C)C)cc3)C(=O)C(=O)N2CCN(C)C)ccc1O (stereo not given)	5.8	0.8	-6.7	2.9	19.8	-0.3	10.7%
COc1ccc(/C=C/C(=O)c2ccc3c4c(cccc24)CC3)cc1OC	-5.0	4.3	3.0	38.7	2.5	1.0	.
Cc1nn(C(C)C(=O)NCCCN2CCCC2)c(=O)c2nn(-c3ccccc3)c(C)c12 (stereo not given)	-6.8	-1.6	0.9	-9.0	-11.9	-1.0	.
O=P(Cc1cc(Br)cc(Br)c1OCCO)(c1ccccc1)c1ccccc1	.	-3.8	-1.7	27.2	1.6	4.1	0.1%
Cc1cc(N2CCN(S(=O)(=O)c3ccccc3)CC2)c2ccccc2n1	-2.7	-1.0	5.2	-5.5	11.7	1.6	-4.8%
Cc1cc2c(OCC(O)CNCc3ccco3)cccc2[nH]1 (stereo not given)	27.4	-1.0	-0.3	8.0	-4.2	0.2	8.9%
COC(=O)COc1nc(C)c2c(c1C#N)CC(C)(C)OC2	-3.9	1.2	-0.9	-7.5	23.9	0.0	0.3%
COc1cccc2c(Nc3ccccc3C)cc(C)nc12	-5.1	1.1	-2.5	-18.1	10.4	-0.6	.
COc1ccc(Cl)cc1S(=O)(=O)N1CCCC(C(=O)N2CCOCC2)C1 (stereo not given)	-4.7	2.5	1.7	-9.0	0.8	7.7	.
COc1ccc(OC)c(NC(=O)Cn2cnc3c(cnn3-c3ccccc3)c2=O)c1	-10.2	-3.5	2.7	-1.3	-5.5	1.0	0.7%
CC(=O)N1C(c2ccccc2O)C[C@]2(C)CC(=O)NC12 (stereo not given in full)	11.4	0.0	4.0	2.2	-2.9	5.6	6.8%
COc1ccc(N(CCC#N)C(=O)/C(C#N)=C\c2cccs2)cc1	-0.8	-2.6	-4.2	27.6	-14.8	10.5	16.5%
Cc1nnsc1C(=O)NC1CCCc2c1cnn2-c1cc(F)cc(F)c1 (stereo not given)	-5.6	1.2	1.5	5.0	7.1	?	.
CCCn1c(SCC(=O)NCc2ccco2)nc2c1c(=O)n(C)c(=O)n2C	6.0	8.7	-3.0	-5.9	8.2	-2.5	4.4%
Cc1ccc(S(=O)(=O)N2CCC(=O)N(CCOCc3cccc(C)c3)CC2)cc1	3.2	1.6	-1.9	9.6	-7.8	-1.0	-4.4%
COc1ccc(/C=N/NC(=O)C[n+]2ccccc2)c(OC)c1	-4.8	7.2	-0.3	25.6	5.0	-1.6	-4.7%
CCn1c(COc2ccc(Cl)c(C)c2)nnc1SCC(=O)N1CCCC1	-11.4	-1.5	-1.8	8.0	-6.4	2.4	-4.2%
COc1cc([N+](=O)[O-])ccc1NC(=S)Nc1cccc(C(=O)O)c1	-22.8	-5.1	-4.9	31.9	-0.9	-0.5	-1.9%
CCCOc1ccc(C(=O)Nc2cc(S(=O)(=O)N3CCOCC3)ccc2N2CCOCC2)cc1	-7.7	0.2	3.9	.	3.1	.	-7.4%
Cn1c(CC(=O)c2ccc(Br)cc2)[n+](C)c2ccccc21	-2.5	-0.8	-2.0	-4.4	-1.5	2.9	3.1%
COc1ccc(C(=O)N2CCN(C(=O)c3ccco3)CC2)cc1	-4.1	2.5	-3.2	10.8	-3.7	4.0	0.5%

Going on with the list.
smiles	ALR H2O2 inh	HNF4A DNA FP	LANA-H2B inh	Calb FLC	Beta2AR agonist	RanGTP-Imp inh	Vif A3G
COCCNC(=O)c1ccc2c(=O)n(Cc3ccco3)c(SCC(=O)Nc3ccc(OC)cc3OC)nc2c1	-5.1	4.8	5.2	11.2	14.2	2.9	-1.7%
COc1cccc(N(Cc2nnc3n2CCCCC3)C(=O)Nc2ccccc2)c1	.	-1.6	4.0	-0.8	2.0	0.8	-2.2%
O=C(COC(=O)c1cncc(Br)c1)NCc1ccc(Cl)cc1	-6.0	1.1	166.9*	4.0	-3.7	2.7	-30.5%
CCOC(=O)C1CCCN(C(=O)CCc2ccccc2)C1 (stereo not given)	2.7	-5.0	1.5	?	-3.0	-3.7	16.4%
O=C(O)c1ccc(/C=N/Nc2ccc(Cl)nn2)cc1	3.2	-0.5	-1.4	4.9	-1.8	-1.3	.
Cc1ccc2cc(CN(Cc3cccs3)Cc3nnnn3CC3CCCO3)c(=O)[nH]c2c1C (stereo not given)	.	3.8	.	8.0	-10.0	5.9	2.9%
O=C(NCC1COCCO1)c1cc(COc2c(F)cccc2F)on1 (stereo not given)	-3.8	2.5	3.2	2.3	-5.2	1.9	1.9%
S=C(Nc1ccc(Br)cc1Cl)N1CCCC1	-27.8	2.2	0.5	-7.7	-3.2	4.8	.
CCNC(=O)COc1ccc(CC)cc1	-1.8	-1.8	5.1	-5.6	-10.3	-2.4	5.7%
CCOc1ccc(CCNC(=O)c2nnn(CC(=O)Nc3ccc(C)cc3)c2N)cc1OCC	4.8	4.0	-0.4	0.2	-4.5	6.1	.
Cc1nn(C)c(C)c1S(=O)(=O)N(CC(=O)N1CCc2ccccc2C1)c1ccc(C(C)C)cc1	-4.8	-1.7	10.2	0.1	-13.2	-1.3	4.4%
Cc1ccc(NC(=O)CCC(=O)N/N=C/C=C/c2ccccc2)cc1	-3.5	-3.1	0.2	-0.8	-18.5	4.6	.
O=c1c2cc(N3CCOCC3)ccc2[nH]c(=S)n1Cc1ccccn1	23.4	2.6	-1.1	1.9	-0.2	1.8	?
CCOC(=O)c1ccc(NC(=O)C2CCCN(c3cnccn3)C2)cc1 (stereo not given)	-16.7	2.7	1.3	7.8	5.3	3.8	.
CC(C)OC(=O)CSc1nnnn1-c1ccc2c(c1)OCCO2	0.4	28.5	0.0	1.7	6.3	0.7	-0.4%
COc1ccc(C(=O)NCc2cccnc2)cc1S(=O)(=O)N1CCCc2ccccc21	-22.5	1.7	-0.1	2.0	1.7	-0.7	17.5%
Fc1cccc(Cl)c1CNCc1ccccc1Cl	-21.7	-2.8	1.9	-2.1	-2.1	0.7	2.8%
C=CCn1c(SCc2csc(C)n2)nc2sc3c(c2c1=O)CCC(C)C3 (stereo not given)	-5.7	2.0	3.2	45.2	-3.5	5.2	4.6%
CC(=O)Nc1ccc(NC(=O)c2nc(S(=O)(=O)Cc3cccc(C)c3)ncc2Cl)cc1	-7.9	3.2	0.9	-7.1	17.8	3.5	.
COc1cc(CNCCCN2CCOCC2)cc(Cl)c1OCC(=O)NC(C)(C)C	-9.6	-4.9	-2.6	-0.9	-8.8	-0.5	.
O=[N+]([O-])c1ccccc1S(=O)(=O)N1CCN(CC2CC=CCC2)CC1 (stereo not given)	-0.5	-0.1	-2.7	7.9	0.1	-0.6	-5.2%
COc1c2c(cc3oc(C)cc(=O)c13)OC(C(C)(C)OC1OC(CO)C(O)C(O)C1O)C2 (stereo not given)	-6.3	1.4	-0.4	1.5	-5.8	-5.1	30.2%

Compound activity from PubChem.
